PINK1 expr mod = PINK1 expression modulation | PINK1 immunofluorescence, high-content cytometry, 24 h | Potency, µM (highest dose often 76.6 µM), for inactives: top-dose activation (PINK1 increase), actives largely listed as activators | hit rate 0.2% among 410,000 | AID 624263; active = well fitted activation curve with a large enough effect; inconclusive = small, poorly fitted or top-dose-only effect; inactive = flat fitted curve, though single readings scatter; cell line not stated here;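 also: potency is read from the fitted curve at half-maximal effect; % of control where 0% means no effect; nearly all actives have a fitted effect of over 65% in size; a mitochondrial uncoupler was the plate control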
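Readout is PINK1 immunofluorescence, quantified alongside mitochondrial, cell and nuclear markers by laser-scanning microplate cytometry. Cells from a stable line were exposed to compound titrations (5 concentrations) for 24 hours, with CCCP controls.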
Menin-MLL FL inh = menin-MLL binding inhibition, fluorescein peptide | Fluorescence polarization, fluorescein-MLL peptide displacement from menin | FP activity change, % at 61.4 µM | 290,000 tested, under 10 active; inconclusive = falling polarisation curve, or a change in total fluorescence; inactive = total fluorescence flat and polarisation flat or rising; no compound was filed as active; the % refers to the polarisation; negative = inhibition;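 also: % of control where 0% means no effect; inhibitors lower the polarisation; unlabelled MLL peptide was the positive control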
D2 agonist = activates the human D2 dopamine receptor; DiscoveRx PathHunter D2 beta-arrestin, luminescence, 90 min; 100% = 57 uM dopamine signal; P14416; hit rate 0.084% among 360,000; activation, % (concentration not given with the values); in the data active = activation above about 40%; inconclusive = about 15% to 40%; inactive = below about 15%; also: compound concentration not given in the record; the text of the record calls up to 30% inactive
Target sequence (P14416 whole entry, looked up): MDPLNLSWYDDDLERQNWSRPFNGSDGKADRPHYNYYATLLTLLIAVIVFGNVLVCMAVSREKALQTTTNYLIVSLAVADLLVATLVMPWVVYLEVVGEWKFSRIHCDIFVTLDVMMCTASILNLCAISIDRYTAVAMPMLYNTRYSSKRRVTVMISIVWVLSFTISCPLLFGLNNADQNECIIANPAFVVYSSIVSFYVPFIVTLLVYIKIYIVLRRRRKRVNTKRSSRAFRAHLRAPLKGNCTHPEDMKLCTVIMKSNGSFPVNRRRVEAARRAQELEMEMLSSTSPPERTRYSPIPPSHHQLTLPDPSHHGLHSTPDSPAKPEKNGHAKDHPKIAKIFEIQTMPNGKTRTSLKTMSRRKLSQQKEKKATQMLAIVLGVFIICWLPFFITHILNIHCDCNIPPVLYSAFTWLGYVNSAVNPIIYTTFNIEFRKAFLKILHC
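DiscoveRx PathHunter D2 beta-arrestin cells (2,100/well) attached overnight, then compound-stimulated 90 min at 37 C in HBSS/10 mM HEPES/0.1% Tween-20 buffer; beta-galactosidase complementation read by luminescence after 1 h at ambient temperature. Dopamine 57 uM final (EC100) as control.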
gsp ag = gsp mutant agonism | hit rate 0.13% among 340,000 | gsp mutant cells, cAMP HTRF, 30 min; control for the full effect not named in the record | AID 624287 | Potency, µM (top dose mostly 76.9 µM), for the others: top-dose activation (cAMP increase), usual class: activators; active = well fitted activation curve with a large enough effect; inconclusive = small, poorly fitted or top-dose-only effect, or another doubt; inactive = no such curve, though single readings can be large or run the other way; cell line not stated here;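 also: phosphodiesterase inhibitor Ro 20-1724 added with compounds to block cAMP breakdown; potency is read from the fitted curve at half-maximal effect; nearly all actives have a fitted effect of over 60% in size; about a fifth of the inactives were tested at one dose only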
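Cells in DMEM/10% FBS with G418 were pretreated with compounds in DMSO plus […] (300 uM stock) for 30 min at 37C. cAMP was measured by HTRF (cAMP-d2 plus anti-cAMP antibody-K) after 30 min at room temperature.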
ClpP mod = qHTS Assay for Activators of ClpP. ATP-dependent Clp protease proteolytic subunit (Bacillus subtilis (strain 168)), P80244. purified B. subtilis ClpP, FRET peptide cleavage, 20 min. Potency, µM (series often up to 57.5 µM), for inactives: at the highest dose activity change, negative = active. hit rate 1.9% among 340,000. AID 651965, 2013; active = well fitted falling curve with a large enough effect; inconclusive = small, poorly fitted or top-dose-only effect; inactive = no such curve, though single readings can be large or run the other way; also: potency is read from the fitted curve at half-maximal effect; the source files actives as falling curves though it sought activators and does not explain the sign; nearly all actives have a fitted effect of over 65% in size; many hits overshoot -100%
Target sequence (P80244 whole entry, looked up): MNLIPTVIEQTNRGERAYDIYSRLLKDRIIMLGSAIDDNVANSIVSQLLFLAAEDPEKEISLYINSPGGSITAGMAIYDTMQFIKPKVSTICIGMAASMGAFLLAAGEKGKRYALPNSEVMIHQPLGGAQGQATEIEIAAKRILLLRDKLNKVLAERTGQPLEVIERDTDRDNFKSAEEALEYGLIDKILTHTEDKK
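FRET quenching reversal measured ClpP activation: 10 microg/mL B. subtilis ClpP at pH 8 with the FRET-FV decapeptide, read at 430 nm after 320 nm excitation. The 20-min minus 0-min signal was scaled between DMSO/no-enzyme wells and ADEP (5.8 microM final).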
gsp antagonist = gsp mutant antagonism | gsp-mutant cells, cAMP HTRF, 30 min; control for the full effect not named in the record | Potency, µM (series often up to 76.9 µM), without a hit: at the top dose activity change, negative = inhibition, usual class: inhibitors | hit rate 0.4% among 340,000; active = falling curve of any shape with a large fitted effect; inconclusive = falling curve, mostly with a smaller effect; inactive = flat or rising curve; cell line not stated here;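 also: intracellular cAMP measured with PDE inhibitor Ro 20-1724 present during compound exposure; potency is read from the fitted curve at half-maximal effect; % is scaled to controls: 0 for no effect and ±100 for the full control effect; nearly all actives have a fitted effect of over 65% in size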
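HTRF cAMP measurement after 30 min RT detection following 30 min, 37C compound treatment alongside […] (added as 300 uM solution) in G418-selected cells seeded at 2000/well and grown 16–24 h.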
Sfp PPTase inh = inhibitors of Bacillus subtilis Sfp phosphopantetheinyl transferase. Potency, µM, for the others: max response, negative = inhibition, actives largely listed as inhibitors. Q9F4F7. hit rate 3.5% among 310,000. AID 1490. Biochemical Sfp PPTase activity, qHTS; active = well fitted inhibition curve with a large enough effect; inconclusive = small, poorly fitted or top-dose-only effect, or another doubt; inactive = no such curve, though single readings can be large or run the other way;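 also: the enzyme is Sfp with the accession as filed and its product quenches rhodamine fluorescence; potency is read from the fitted curve at half-maximal effect; 0% = enzyme reaction without inhibitor and -100% = no enzyme wells; top concentration of the series not given in the record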
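Step 1, compound plus 15 nM Sfp-PPTase, 15 min, room temperature. Step 2, add rhodamine-CoA (5 uM) and BHQ-2-YbbR (12.5 uM). Step 3, read 525/598 nm fluorescence at 0 and 30 min.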
* marks the source's active call; other numbers are inactive results; ? = inconclusive; / = no result given; & = joins results of further samples; [ ] = remark or other dose. Hits appear at their usual frequency; overall some 5.1% were active at least once.

Compound	gsp ag	PINK1 expr mod	Sfp PPTase inh	ClpP mod	Menin-MLL FL inh	gsp antagonist	D2 agonist
Brc1cccc(-c2nc3c4ccccc4ccn3c2Cc2ccccc2)c1	/	4.3%	/	-21%	/	/	-3.2
C=C(C)CNC(=S)N/N=C(\C)c1ccc(OC)cc1	-1%	5.0%	4%	1.0%	3.3	-14%	-0.9
CCCCn1c(SC(C)C(=O)c2ccc(OC)cc2)nc2cc(S(N)(=O)=O)ccc21 (stereo not drawn)	-3%	1.0%[38.3 µM]	-10%	-0.4%	-1.1	-4%	0.8
CCN(CC)Cc1c(O)ccc2occ(C(=O)c3ccccc3)c12	-10%	1.9%	9%	1.1%	1.1	2%	-5.2
O=C(CCc1ccccc1)NNc1ccc(F)cc1	29%	2.7%	13%	/	5.7	8%	-0.6
CC1CCN(S(=O)(=O)c2cc3c4c(c2)CCN4C(=O)CC3)CC1	-32%	3.5%	/	1.0%	/	-2%	1.3
CC(NS(=O)(=O)c1cccc(C(=O)O)c1)C12CC3CC(CC(C3)C1)C2 (stereo not drawn)	8%	2.1%	/	0.9%	/	?	-2.3
CC(=O)Nc1ccc(NC(=O)C2CCCN2C(=O)NC2CCCCC2)cc1 (stereo not drawn)	-36%[inhibitor]	-0.9%	11%	/	-4.7	4%	2.8
CC1CCN(C(=O)CSCC(=O)O)CC1	23%[15.4 µM]	3.0%	-6%	/	6.2	-39%	-6.8
Cc1ccc(C)c(-c2csc(NC(=O)C3=COCCO3)n2)c1	-3%[15.4 µM]	14%	/	/	/	-22%	-1.1
O=C(COc1ccc(S(=O)(=O)NC2CCCCC2)cc1Cl)NCc1cccnc1	2%	0.3%	18µM*	-2.2%	5.9	-8%	2.2
FC(F)(F)c1ccc(/C=N/N2CCN(Cc3cccc4ccccc34)CC2)cc1	4%	3.8%	14%	-3.3%	1.3	8%	1.5
CC(=O)c1ccc(Cc2ccc(C(C)=O)s2)s1	27%	0.5%	/	-3.9%	/	/	-21
O=C(CCC(=O)N1CCN(S(=O)(=O)c2cccc(F)c2)CC1)c1cccs1	-3%[15.4 µM]	0.0%	17%	-1.3%	-3.1	7%	0.6
COc1ccc(C(=O)Nc2sc3c(c2C(=O)NCc2ccco2)CCCC3)cc1OC	30%	11%	?	369%	-1.2	-1%	1.3
Fc1ccccc1N1CCN(C(c2ccncc2)c2nnnn2C2CCCC2)CC1 (stereo not drawn)	22%	-5.5%[38.3 µM]	-2%	-0.2%	-3.6	-6%	1.0
Cc1cccc(NC(=O)CSc2nc3ccccc3c(=O)n2CC2CCCO2)c1 (stereo not drawn)	-26%	0.3%	/	3.7%	/	-7%	-1.0
COc1cc(NC(=O)CN(C)Cc2cccc(F)c2)c(C)cc1[N+](=O)[O-]	0%[15.4 µM]	1.4%	4%	-0.4%	-1.5	1%	-4.5
Cc1ccnc(SCC(=O)N2CCC(C(N)=O)CC2)n1	5%	1.9%	-6%	0.6%	-3.2	14%	-1.0
COc1ccc(NC(=S)N2CCN(S(=O)(=O)c3ccc(F)cc3)CC2)cc1OC	-2%	2.1%	-14%	-2.1%	1.5	-7%	1.3
Cc1ccc(C(=O)NCC(=O)Nc2ccc(Cl)cc2)s1	10%[15.4 µM]	2.1%	/	-1.1%	/	2%	-2.9
Cc1ccc(S(=O)(=O)N2CCN(Cc3cc(C(C)C)ccc3O)CC2)cc1	-37%[inhibitor]	0.2%	13%	-1.9%	0.4	6%	-3.2
COc1ccc(NS(=O)(=O)c2ccc(OCC(=O)N3CCOCC3)cc2)cc1Cl	8%	-1.2%	-1%	-0.5%	/	-4%	0.0
CCOC(=O)c1sc(NC(=O)c2c(CC)noc2C)nc1C	7%	3.0%	/	-4.7%	/	-11%	-0.5
CCc1ccc(CCC(=O)N2CCN(S(=O)(=O)c3sc(C(=O)O)c(C)c3C(=O)O)CC2)cc1	2%	-1.4%	/	2.0%	/	10%	-0.9

Compound	gsp ag	PINK1 expr mod	Sfp PPTase inh	ClpP mod	Menin-MLL FL inh	gsp antagonist	D2 agonist
COc1ccc(CCNS(=O)(=O)c2ccc(Cl)cc2)cc1OC	-5%	-2.5%	15%	0.3%	5.2	2%	-0.8
CCOc1ccc2oc(C(=O)NC3CCN(Cc4ccccc4)CC3)c(C)c2c1	-3%[15.4 µM]	12%	13%	-2.4%	-0.7	-6%	-4.9
CCOCCCNc1c(CC)c(C)c(C#N)c2nc3ccccc3n12	?	-0.8%	8%	-13%	-0.3	-5%	5.2
O=C(COc1ccccc1)N1CCN(C(=O)c2ccccc2F)CC1	-6%[15.4 µM]	-0.6%	10%	/	-11	8%	-4.1
COC(=O)CC(=O)CSc1nc2c(cc1C#N)CCCCC2	5%	/	-3%	205%	4.9	-3%	-4.2
O=C(CSc1nnc(CNC(=O)c2ccco2)o1)NC1CCCC1	?	-1.6%	-6%	-0.5%	1.6	-3%	-1.4
COc1cccc(/C=C2\SC(=S)N(C(C)C(=O)NC3C=CS(=O)(=O)C3)C2=O)c1 (stereo not drawn)	-9%	-0.5%	-3%	-0.4%	-1.6	-7%	14
CC(=O)OCCCN1c2ccccc2Nc2nnc(-c3ccccc3)cc21	-11%	-1.0%	15%	-21%	4.8	40µM*	-2.3
Cc1ccc(CNC(=O)c2cc3ccccc3oc2=O)cc1	0%	0.9%	/	?	/	4%	-3.0
Cc1cc(C)nc(NS(=O)(=O)c2ccc(NC(=O)CSc3ncn[nH]3)cc2)n1	16%[15.4 µM]	-0.8%	18%	/	-1.5	6%	-2.2
O=C(O)CSCC(=O)NCc1ccccc1Cl	-10%	-0.9%	-18%	/	-1.5	6%	0.6
Cc1ccc(NC(=O)Cc2ccccc2Cl)cc1S(=O)(=O)N(C)C	?	?	9%	?	4.0	1%	-2.5
COc1ccc(CNc2ncc(-c3ccc(Cl)cc3)n2C)c(OC)c1OC	-28%	4.8%	-12%	-1.1%	-10	-4%	-8.7
O=S(=O)(Cc1ccccc1)N1CCc2ccccc2C1	-33%[inhibitor]	6.5%[38.3 µM]	6%	-0.9%	2.8	6%	-2.9
Cc1ccc2[nH]c(=O)c(C(c3nnnn3CCc3ccccc3)N3CCOCC3)cc2c1 (stereo not drawn)	?	0.2%	-19%	-28%	4.2	0%	-3.0
COc1cccc(CNS(=O)(=O)c2ccccc2Br)c1OC	/	0.0%	/	0.2%	/	2%	-1.4
CCCCNCCS(=O)(=O)NCc1ccccc1	/	1.0%	/	-1.2%	/	8%	-3.3
Cc1ccc(-c2nc3ccccc3o2)cc1NC(=S)NC(=O)c1cc2ccccc2o1	4%	0.3%	?	16µM*	3.3	6%	0.1
COC(CNC(=O)c1c[nH]c2ccc(S(=O)(=O)N3CCC4(CC3)OCCO4)cc2c1=O)OC	26%	1.8%	16%	22µM*	5.5	-2%	-10
O=C(COC(=O)c1cc(=O)[nH]c2ccccc12)NCCc1ccccc1	15%	2.0%	/	-11%	/	11%	-1.6
COc1cccc(CCNC(=O)COc2cccc3c2OC(C)(C)C3)c1	-8%	-6.3%	/	-0.5%	/	2%	1.9
COc1ccc(/C=C/CN2CCN(Cc3ccc(C)cc3)C(CCO)C2)cc1 (stereo not drawn)	20%	0.3%	10%	/	0.7	16%	-0.9
O=C(NCC1CCN(Cc2cccc(Cl)c2)CC1)Nc1ccc(Cl)cc1	-22%	1.8%	-5%	0.2%	1.0	-2%	-8.5
C=CC(C)(C)c1cc2cc3ccoc3cc2oc1=O	/	1.3%	2%	-12%	3.5	-8%	-1.4
CCCOC(=O)Nc1nnc(CCC)s1	8%	0.6%[38.3 µM]	-6%	0.5%	2.2	15%	-1.9

Compound	gsp ag	PINK1 expr mod	Sfp PPTase inh	ClpP mod	Menin-MLL FL inh	gsp antagonist	D2 agonist
O=C(C[n+]1ccccc1)Nc1ccccc1Br	3%[15.4 µM]	-0.4%	5%	/	-2.0	6%	-3.5
COc1ccc(/C(C)=N/NC(=O)Cc2c(C)nc(C)[nH]c2=O)cc1	26%	-0.8%	2%	-2.0%	/	11%	-1.3
CCN(CC)C(=O)CSc1nnc(-c2cccs2)n1Cc1ccco1	6%	-0.5%	-12%	-3.9%	3.8	-7%	-2.6
Cn1cccc1C(=O)N1CCC2(CCCN(c3ccncc3)C2)CC1	/	-1.0%	26%	/	2.8	/	/
O=C(CCS(=O)(=O)Cc1ccccc1F)NCCc1ccc(Cl)cc1	-46%[inhibitor]	-1.2%	-14%	-1.0%	1.8	2%	1.8
N#Cc1ccc(NC(=O)COC(=O)CCc2nc3ccccc3c(=O)[nH]2)cc1	-7%[15.4 µM]	0.0%	23%	/	3.7	-2%	-2.1
COc1ccc(CCN2CC(C(=O)Nc3nccs3)CC2=O)cc1OC (stereo not drawn)	-5%	2.1%	/	-0.4%	/	3%	-0.9
O=C(CN1C(=O)S/C(=C\c2ccccc2F)C1=O)NCCCn1ccnc1	-7%	-0.3%	16%	-0.8%	/	1%	-10
C(=N\NC1=Nc2cccc3cccc1c23)/c1ccccn1	27%	?	45µM*	1.0%	?	?	2.8
CCc1nc2ccc(C(=O)N3CCN(c4ccc(Cl)cc4)CC3)cc2nc1CC	-9%	-0.1%&1.7%	6%	-3.2%&-6.4%	-4.9	-7%	3.5
Cn1cc(C(=O)NCc2ccc(F)cc2)c(=O)c2cc(S(=O)(=O)N3CCCCC3)ccc21	-6%[15.4 µM]	3.0%&4.6%	-2%	0.7%&-1.1%	-0.7	-4%	-2.3
C1=C(C(c2nnnn2C2CCCCC2)N2CCCCC2)COc2ccccc21 (stereo not drawn)	-8%	-2.6%[38.3 µM]	12%	0.4%	2.2	0%	-0.1
CCN(CC)S(=O)(=O)c1cc(C(=O)Nc2cc(S(=O)(=O)N3CCOCC3)ccc2N2CCN(C)CC2)ccc1C	-3%	-0.4%	/	-2.8%	/	?	-4.1
CCOC(=O)C1=C(COC(=O)C2CC(=O)N(c3ccc(CC)cc3)C2)NC(=O)NC1C (stereo not drawn)	?	1.0%	/	2.7%	/	-9%	2.7

Screening data (PubChem)
